High-throughput results from PubChem.
Mtb hypoxia rep = Mtb hypoxia fluorescent reporter inhibition; fluorescence inhibition, % (concentration not given with the values); AID 1159583; hit rate 0.1% among 300,000; M. tuberculosis hypoxia-regulated fluorescent reporter, fluorescence;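 active = 35 to 45% if threefold the growth effect, above 45% if 1.5-fold the growth effect; inactive = the rest, general growth blockers included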;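 also: wells of about 50 µL received 100 nL stock; 0% = vehicle wells and 100% = reference inhibitor wells; whole bacteria with a GFP reporter of the hypoxia response; strong numbers were not always called active; many hits fall short of the cut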
Autofluor counter = counter-screen for toxin protease inhibitors: compound fluorescence | fluorescence intensity (test concentration not listed) | compound autofluorescence counterscreen, microsphere flow cytometry; active compounds read high | hit rate 3.1% among 360,000;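 active = at least 3 SD above the mean of all compounds, about 16000 in these data; inconclusive = too few beads counted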;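 also: 100 nL of 1 mM stock went into each well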
Sa ugtP lethal = kills S. aureus RN4220 lacking UgtP; S. aureus RN4220 ugtP deletion, OD600 growth, 16 h; some inactives read as strong as hits; growth inhibition, % (test concentration not listed); hit rate 0.54% among 330,000; AID 1259309;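 active = z-score under -3 and OD600 up to 0.15 on both plates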;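 also: plate controls were untreated wells for no effect and antibiotic for full effect; wells of about 80 µL received 100 nL stock; the first replicate is given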
BJeLR viability = BJeLR cell viability loss; AID 1554; inhibition, % (no concentration beside the values); BJeLR (HRASV12) viability, CellTiter-Glo ATP luminescence, 48 h; reference of the scale not given here; hit rate 0.17% among 300,000;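 active = replicate mean above 50%; inconclusive = above 50% but judged a plate artefact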;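 also: 50 nL library stock added to about 25 µL; numbers are from one replicate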
PrP 5UTR inh = suppresses PrP 5' UTR mRNA reporter expression | hit rate 0.35% among 340,000 | cell-based PrP 5' UTR mRNA reporter, plate reader | inhibition, % (concentration not given with the values);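 active = every replicate at 50% or more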;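 also: 0 = median of the neutral control wells; tested in H4 reporter cells; numbers are from one replicate; inactives centre near -14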
RN4220 kill = S. aureus RN4220 growth inhibition. OD600, 16 h. inhibition, % (no concentration beside the values). hit rate 0.33% among 330,000;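 active = z-score of -3 or lower and OD600 up to 0.18 on both plates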;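 also: plate controls were untreated cells for no effect and reference antibiotic for full effect; stock transfer was 100 nL into about 80 µL; one replicate is shown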
Mtb hypoxia rep growth = second read-out of Mtb hypoxia rep, no call of its own (marks repeat the call); growth inhibition, %; measured here: M. tuberculosis growth (absorbance);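 0% = vehicle and 100% = reference antibiotic; read after six days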
Starred values were filed as active, the others as inactive.

Preview, 4 compounds:
C=CCNC(=S)N1CCN(CCN=CC2=C(O)CC(c3ccco3)CC2=O)CC1 (configuration not stated) was read as Mtb hypoxia rep -7, Autofluor counter 11810, Sa ugtP lethal 2, BJeLR viability -2, PrP 5UTR inh -26, RN4220 kill 1.5 and Mtb hypoxia rep growth -8.
Cc1ccc(C)c(OCCC(=O)Nc2cccc(S(=O)(=O)NC3=NCCCCC3)c2)c1 was read as Mtb hypoxia rep 8, Autofluor counter 3052, Sa ugtP lethal 6, PrP 5UTR inh 15, RN4220 kill 3.3 and Mtb hypoxia rep growth 0.
For Cc1cc(NN=Cc2c[nH]c3ccccc23)c2ccccc2n1 the results were Mtb hypoxia rep 0, Sa ugtP lethal 19, RN4220 kill -17 and Mtb hypoxia rep growth -1.
For O=C(NCc1ccccc1)NC(=O)c1ccccc1 the results were Autofluor counter 3774, Sa ugtP lethal 2, BJeLR viability -3, PrP 5UTR inh -34 and RN4220 kill 4.3.

This part in full, repeating the preview:
C=CCNC(=S)N1CCN(CCN=CC2=C(O)CC(c3ccco3)CC2=O)CC1 (configuration not stated) was read as Mtb hypoxia rep -7, Autofluor counter 11810, Sa ugtP lethal 2, BJeLR viability -2, PrP 5UTR inh -26, RN4220 kill 1.5 and Mtb hypoxia rep growth -8.
Cc1ccc(C)c(OCCC(=O)Nc2cccc(S(=O)(=O)NC3=NCCCCC3)c2)c1 was read as Mtb hypoxia rep 8, Autofluor counter 3052, Sa ugtP lethal 6, PrP 5UTR inh 15, RN4220 kill 3.3 and Mtb hypoxia rep growth 0.
For Cc1cc(NN=Cc2c[nH]c3ccccc23)c2ccccc2n1 the results were Mtb hypoxia rep 0, Sa ugtP lethal 19, RN4220 kill -17 and Mtb hypoxia rep growth -1.
For O=C(NCc1ccccc1)NC(=O)c1ccccc1 the results were Autofluor counter 3774, Sa ugtP lethal 2, BJeLR viability -3, PrP 5UTR inh -34 and RN4220 kill 4.3.
COc1ccc(NS(=O)(=O)c2cccc(C(=O)NN=Cc3cn(-c4ccccc4)nc3-c3ccc(OC)cc3)c2)cc1 was read as Mtb hypoxia rep -12, Sa ugtP lethal -6, RN4220 kill -1.1 and Mtb hypoxia rep growth -4.
For O=c1c2cc(Br)ccc2[nH]c(=S)n1Cc1cccnc1 the results were Autofluor counter 9894, BJeLR viability -2 and PrP 5UTR inh -4.
For COC(=O)c1ccccc1NC(=O)CN1CCC(n2nnc3cc(C(F)(F)F)ccc32)CC1 the results were Mtb hypoxia rep -9, Autofluor counter 2479, Sa ugtP lethal -4, BJeLR viability 0, PrP 5UTR inh 0, RN4220 kill -6.2 and Mtb hypoxia rep growth -12.
Screening Nc1ccc2c(c1)C(=O)c1ccccc1-2 returned Mtb hypoxia rep 7, Autofluor counter 3918, Sa ugtP lethal -3, BJeLR viability 2, PrP 5UTR inh -51, RN4220 kill 1.2 and Mtb hypoxia rep growth -5.
For Cc1nc(C)c(-c2csc(Nc3ccc(S(N)(=O)=O)cc3)n2)s1 the results were Mtb hypoxia rep -5, Autofluor counter 3796, Sa ugtP lethal 17, BJeLR viability 0, PrP 5UTR inh 9, RN4220 kill 1.6 and Mtb hypoxia rep growth 1.
Cc1cccc(NC(=O)c2cc(-c3cccnc3)nc3c(C)cccc23)n1 was read as Mtb hypoxia rep 2, Autofluor counter 5902, Sa ugtP lethal -3, BJeLR viability 4, PrP 5UTR inh 0, RN4220 kill 0.9 and Mtb hypoxia rep growth -1.
`O=C(CSc1nnnn1-c1ccc2c(c1)OCCO2)N1CCc2ccccc21` gave Mtb hypoxia rep 0, Autofluor counter 8341, Sa ugtP lethal 7, BJeLR viability -10, PrP 5UTR inh -11, RN4220 kill 3.6 and Mtb hypoxia rep growth -2.
`COc1cccc(N2CCN(C(=S)Nc3cccc(C)c3)CC2)c1` gave Mtb hypoxia rep 3, Autofluor counter 15838, Sa ugtP lethal -1, BJeLR viability -15, PrP 5UTR inh -23, RN4220 kill -0.6 and Mtb hypoxia rep growth -3.
Brc1cnc2nc(SCc3nc4ccccc4[nH]3)[nH]c2c1 was read as Mtb hypoxia rep -1, Autofluor counter 5863, Sa ugtP lethal -3, BJeLR viability 3, RN4220 kill 2.6 and Mtb hypoxia rep growth 7.
`CC(C)NS(=O)(=O)c1ccc(CCC(=O)N2CCOCC2)cc1` gave Mtb hypoxia rep 15, Autofluor counter 4372, Sa ugtP lethal 4, BJeLR viability -1, PrP 5UTR inh -4, RN4220 kill 3.4 and Mtb hypoxia rep growth 0.
Screening CCCOC(=O)c1ccccc1C(=O)OCCC returned Mtb hypoxia rep 11, Autofluor counter 5556, Sa ugtP lethal 10, PrP 5UTR inh -10, RN4220 kill 3.0 and Mtb hypoxia rep growth 10.
COC(=O)c1nn(-c2ccccc2)c(=O)cc1O was read as Mtb hypoxia rep 4, Autofluor counter 2699, Sa ugtP lethal 7, BJeLR viability -6, PrP 5UTR inh -23, RN4220 kill 6.8 and Mtb hypoxia rep growth -2.
CC(C)NC(=S)NN=Cc1ccc2c(c1)OCCO2 was read as Mtb hypoxia rep 3, Sa ugtP lethal -4, RN4220 kill 5.3 and Mtb hypoxia rep growth 1.
For O=C(N1CCN(c2ccccc2)CC1)C12CC3CC(CC(C3)C1)C2 the results were Mtb hypoxia rep 7, Autofluor counter 3868, Sa ugtP lethal 8, BJeLR viability 4, PrP 5UTR inh -12, RN4220 kill -2.9 and Mtb hypoxia rep growth 2.
C/C(=N\NC(=O)c1cc(C)nc2ccc(C)cc12)c1ccncc1 was read as Autofluor counter 7311, BJeLR viability 2 and PrP 5UTR inh -55.
`O=C(Nc1ccc(F)c(Cl)c1)C1CC(=O)N(Cc2ccccc2)C1` (configuration not stated) gave Mtb hypoxia rep -3, Autofluor counter 5249, Sa ugtP lethal -12, BJeLR viability 5, PrP 5UTR inh -7, RN4220 kill -2.5 and Mtb hypoxia rep growth 9.
For CC(=O)c1ccc(NC(=O)C[n+]2ccccc2)cc1 the results were Mtb hypoxia rep 1, Autofluor counter 4528, Sa ugtP lethal 4, BJeLR viability -2, PrP 5UTR inh 17, RN4220 kill 2.4 and Mtb hypoxia rep growth -6.
For CN(C1CCCCC1)S(=O)(=O)Cc1ccccc1 the results were Mtb hypoxia rep 2, Autofluor counter 22622*, Sa ugtP lethal -1, BJeLR viability -4, PrP 5UTR inh -9, RN4220 kill 4.1 and Mtb hypoxia rep growth 11.
Cc1ccccc1NC(=S)NCCC(c1ccccc1)c1ccccc1 was read as Autofluor counter 2485, Sa ugtP lethal 9, BJeLR viability -6, PrP 5UTR inh -29 and RN4220 kill -2.9.
For Cc1ccc(Cn2c(SCC(=O)N/N=C/c3ccc(C)o3)nc3ccccc32)cc1 the results were Autofluor counter 4864, BJeLR viability 1 and PrP 5UTR inh -10.
Cc1oc2ccc(NS(=O)(=O)c3ccc(F)cc3)cc2c1C(=O)O was read as Mtb hypoxia rep -6, Autofluor counter 3637, Sa ugtP lethal 9, BJeLR viability -11, PrP 5UTR inh -16, RN4220 kill 0.6 and Mtb hypoxia rep growth 4.
`CCOC(=O)C1(CCCc2ccccc2)CCN(C(=O)[C@@H]2C[C@@H](C)NC(=S)N2)CC1` gave Mtb hypoxia rep 4, Autofluor counter 2090, Sa ugtP lethal 0, BJeLR viability -6, PrP 5UTR inh -20, RN4220 kill 3.1 and Mtb hypoxia rep growth 14.
Screening CC(=O)Nc1cccc(NC(=O)CSc2nc(=O)n(Cc3ccccn3)c3c2CCC3)c1 returned Mtb hypoxia rep 10, Autofluor counter 4620, Sa ugtP lethal 2, BJeLR viability 4, PrP 5UTR inh -20, RN4220 kill 1.7 and Mtb hypoxia rep growth 4.
For COC(=O)Cn1c(=NC(=O)c2ccc(S(=O)(=O)N3CCc4ccccc4C3)cc2)sc2cc(OC)ccc21 the results were Mtb hypoxia rep 12, Autofluor counter 3847, Sa ugtP lethal 0, BJeLR viability 12, PrP 5UTR inh -46, RN4220 kill 9.2 and Mtb hypoxia rep growth 6.
For COc1ccc(CNC(=O)[C@H](C)NC(=O)C2CCN(S(=O)(=O)c3ccc(C)cc3)CC2)cc1 the results were Mtb hypoxia rep 0, Autofluor counter 18265*, Sa ugtP lethal 1, BJeLR viability 6, PrP 5UTR inh -26, RN4220 kill 4.7 and Mtb hypoxia rep growth 3.
Screening O=C(Cc1cccs1)Nc1cccnc1 returned Mtb hypoxia rep 8, Autofluor counter 9896, Sa ugtP lethal 6, BJeLR viability 4, PrP 5UTR inh -39, RN4220 kill 0.4 and Mtb hypoxia rep growth 6.
Screening COc1cccc(C2/C(=C(/O)c3cnn(-c4ccccc4)c3C)C(=O)C(=O)N2CCN(C)C)c1 (configuration not stated) returned Autofluor counter 2448, Sa ugtP lethal 2, BJeLR viability 3, PrP 5UTR inh -8 and RN4220 kill -0.7.
Screening Cc1ccc(S(=O)(=O)Nc2ccc(Cl)cc2C(=O)c2ccccc2)cc1 returned Mtb hypoxia rep 1, Autofluor counter 1882, Sa ugtP lethal -14, BJeLR viability -15, PrP 5UTR inh -7, RN4220 kill 2.7 and Mtb hypoxia rep growth -3.
O=C1OC(Cc2ccccn2)C(O)=C1C1=NCCCN1 (configuration not stated) was read as Mtb hypoxia rep 15, Autofluor counter 10450, Sa ugtP lethal 9, BJeLR viability 9, PrP 5UTR inh -17, RN4220 kill 8.1 and Mtb hypoxia rep growth -1.
`COCCn1c(SC(C)C(=O)NC2CCCCC2C)nc2ccccc2c1=O` (configuration not stated) gave Mtb hypoxia rep -4, Autofluor counter 4207, Sa ugtP lethal 2, BJeLR viability 10, PrP 5UTR inh -4, RN4220 kill 2.1 and Mtb hypoxia rep growth -3.
Screening O=C(CCN1CCOCC1)NCC1COc2ccccc2O1 (configuration not stated) returned Mtb hypoxia rep 6, Autofluor counter 8326, Sa ugtP lethal 0, BJeLR viability -3, PrP 5UTR inh -23, RN4220 kill 1.4 and Mtb hypoxia rep growth 16.
For O=C(/C(Cl)=C/Nc1ccc(Br)cn1)C(F)(F)F the results were Mtb hypoxia rep -9, Autofluor counter 4837, Sa ugtP lethal -6, BJeLR viability -3, PrP 5UTR inh -32, RN4220 kill 3.9 and Mtb hypoxia rep growth 7.
`CC1=C([N+](=O)[O-])C(c2ccc(O)c(O)c2)NC(=O)N1` (configuration not stated) gave Mtb hypoxia rep -2, Autofluor counter 3855, Sa ugtP lethal 3, BJeLR viability -5, PrP 5UTR inh 7, RN4220 kill 2.1 and Mtb hypoxia rep growth 2.
Screening CCOC(=O)CC(=O)CSc1n[nH]c(=O)[nH]c1=O returned Mtb hypoxia rep 9, Autofluor counter 4625, Sa ugtP lethal 17, BJeLR viability -5, PrP 5UTR inh -21, RN4220 kill 3.2 and Mtb hypoxia rep growth -6.
For Cc1nc(OCc2c(C)noc2C)c2ccccc2n1 the results were Mtb hypoxia rep 8, Autofluor counter 4729, Sa ugtP lethal 4, BJeLR viability 4, PrP 5UTR inh -22, RN4220 kill 3.1 and Mtb hypoxia rep growth -5.
Screening COc1cc2c(cc1O)C1Cc3ccc(OC)c(O)c3CN1CC2 (configuration not stated) returned Mtb hypoxia rep 7, Sa ugtP lethal 1, RN4220 kill 7.8 and Mtb hypoxia rep growth 8.
Screening CC(=O)c1cccc(NC(=O)Nc2ccccc2)c1 returned Mtb hypoxia rep 5, Autofluor counter 3109, Sa ugtP lethal -3, BJeLR viability -12, RN4220 kill 2.4 and Mtb hypoxia rep growth 2.
CCCC(=O)Nc1c(C)nn(C(=O)CCC)c1C was read as Autofluor counter 2833, Sa ugtP lethal -3, BJeLR viability 7, PrP 5UTR inh -17 and RN4220 kill 0.8.
CN(C)CCNC(=S)NC1CCCCC1 was read as Mtb hypoxia rep 11, Autofluor counter 5795, Sa ugtP lethal 8, BJeLR viability -4, PrP 5UTR inh -18, RN4220 kill 7.4 and Mtb hypoxia rep growth 0.
`CCN(CC)S(=O)(=O)c1cc(C(=O)OCC(=O)c2ccc3c(c2)NC(=O)CO3)ccc1Cl` gave Mtb hypoxia rep -2, Autofluor counter inconclusive, Sa ugtP lethal 3, BJeLR viability 4, PrP 5UTR inh -30, RN4220 kill 2.5 and Mtb hypoxia rep growth -5.
Screening Cc1ccc2c(C)c(C(=O)Nc3ccc(S(=O)(=O)Nc4onc(C)c4C)cc3)oc2c1 returned Mtb hypoxia rep 3, Autofluor counter 5731, Sa ugtP lethal 1, BJeLR viability 8, PrP 5UTR inh -20, RN4220 kill 4.3 and Mtb hypoxia rep growth 5.
Screening Cc1noc(C)c1CSCC(=O)Nc1ccccc1N1CCCCC1 returned Autofluor counter 4331, BJeLR viability 0 and PrP 5UTR inh 0.
